Bioassay records: PubChem BioAssay, National Center for Advancing Translational Sciences (NCATS)
CtBP-E1A blk: blocks the CtBP interaction with E1A; activity change, % (no concentration beside the values); AlphaScreen GST-E1A/His-CtBP binding, 1536-well; hits give low values; control for the full effect not named in the record; actives 0.49% (n = 340,000); in the data active means activity change below about -65%; inconclusive means about -30% to -65%; inactive means above about -30%; also: % is scaled to controls: 0 for no effect and ±100 for the full control effect; compound concentration not given in the record
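In 5 uL wells, 23 nL compound meets equimolar GST-E1A and His-CtBP (5X stock 125 nM each) for 2 h, 37 °C. Beads (5X, 50 ug/mL) then 1 h, 37 °C, dark.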
Six1-Eya2 inh: inhibitors of human Six1/Eya2 interaction; Q15475+O00167; AlphaScreen GST-Six1/His-Eya2 binding, biochemical; hits give low values; control for the full effect not named in the record; activity change, % (test concentration not listed); actives 0.56% (n = 360,000); in the data active = activity change below about -65%; inconclusive = about -30% to -65%; inactive = above about -30%; also: % is scaled to controls: 0 for no effect and ±100 for the full control effect; compound concentration not given in the record
Target sequence (O00167 whole entry, looked up): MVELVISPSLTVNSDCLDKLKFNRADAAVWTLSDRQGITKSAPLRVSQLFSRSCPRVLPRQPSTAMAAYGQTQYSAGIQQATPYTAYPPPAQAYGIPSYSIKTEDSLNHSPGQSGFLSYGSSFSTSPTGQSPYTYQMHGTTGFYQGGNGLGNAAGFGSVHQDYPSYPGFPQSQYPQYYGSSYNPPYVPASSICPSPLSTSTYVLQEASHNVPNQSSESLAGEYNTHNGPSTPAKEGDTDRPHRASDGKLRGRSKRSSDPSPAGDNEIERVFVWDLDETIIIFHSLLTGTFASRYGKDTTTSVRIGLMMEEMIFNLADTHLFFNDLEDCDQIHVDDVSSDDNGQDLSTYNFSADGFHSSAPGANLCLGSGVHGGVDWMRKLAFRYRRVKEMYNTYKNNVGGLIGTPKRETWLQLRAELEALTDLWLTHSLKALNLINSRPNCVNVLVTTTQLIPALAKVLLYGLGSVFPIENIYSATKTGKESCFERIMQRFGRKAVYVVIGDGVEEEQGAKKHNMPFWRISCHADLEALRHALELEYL
Target sequence (Q15475 whole entry, looked up): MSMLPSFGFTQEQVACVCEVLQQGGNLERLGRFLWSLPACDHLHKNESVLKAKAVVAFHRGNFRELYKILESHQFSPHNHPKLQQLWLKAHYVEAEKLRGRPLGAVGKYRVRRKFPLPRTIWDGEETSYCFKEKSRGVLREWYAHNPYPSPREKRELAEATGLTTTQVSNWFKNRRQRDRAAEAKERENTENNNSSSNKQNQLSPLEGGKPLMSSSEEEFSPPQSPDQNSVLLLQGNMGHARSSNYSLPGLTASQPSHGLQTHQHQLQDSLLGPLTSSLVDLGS
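AlphaScreen luminescence read after one hour at 37 °C in darkness. Pin-transferred compounds met GST-Six1 and His-Eya2 protein (5X stock 250 nM/500 nM) plus glutathione donor and Ni-chelate acceptor beads (5X, 50 ug/mL).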
PINK1 expr mod: changes PINK1 expression. PINK1 immunofluorescence, high-content cytometry, 24 h. Potency, µM (highest dose often 76.6 µM), for the others: at the highest dose activation (PINK1 increase), hits mostly activators. actives 0.2% (n = 410,000); active = well fitted activation curve with a large enough effect; inconclusive = small, poorly fitted or top-dose-only effect; inactive = flat fitted curve, though single readings scatter; cell line not stated here;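 also: potency is read from the fitted curve at half-maximal effect; % of control where 0% means no effect; nearly all actives have a fitted effect of over 65% in size; a mitochondrial uncoupler was the plate control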
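Measures PINK1 amount and localization on or inside mitochondria by immunofluorescence. Stable cells get compounds at 5 concentrations for 24 hours before fixation and staining; CCCP controls included.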
TRPML1 inh: blocks the human TRPML1 channel. activity change, negative = inhibition, % (no concentration beside the values). Q9GZU1. actives 0.02% (n = 390,000). AID 624415. TRPML1-inducible cells, Ca2+ dye fluorescence, FDSS; hits give low values; inhibition of EC80 agonist-evoked calcium signal; in the data active means activity change below about -50%; inconclusive means about -30% to -50%; inactive means above about -30%;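 also: stimulus is agonist 54-4 at its EC80 concentration; % is scaled to controls: 0 for no effect and ±100 for the full control effect; compound concentration not given in the record; the text of the record puts the active cut at -80%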
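TRPML1-DL cells, Tet-induced overnight (~16 h, 37 °C) at 1,500 cells/well, were loaded with Ca8 no-wash dye plus quencher for 45-90 min at room temperature. Compounds were pinned during FDSS kinetic reading; agonist 54-4 at EC80 (4 uM final) then added.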
D2 ag: human D2 receptor agonism in beta-arrestin assay; P14416; actives 0.084% (n = 360,000); activation, % (concentration not given with the values); AID 624465; DiscoveRx PathHunter D2 beta-arrestin, luminescence, 90 min; 100% = 57 uM dopamine signal; in the data active = activation above about 40%; inconclusive = about 15% to 40%; inactive = below about 15%; also: compound concentration not given in the record; the text of the record calls up to 30% inactive
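DiscoveRx PathHunter D2 beta-arrestin cells (2,100/well) attached overnight, then compound-stimulated 90 min at 37 C in HBSS/10 mM HEPES/0.1% Tween-20 buffer; beta-galactosidase complementation read by luminescence after 1 h at ambient temperature. Dopamine 57 uM final (EC100) as control.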
TRPML1 ag: agonists of human TRPML1 channel; Q9GZU1; actives 0.12% (n = 410,000); TRPML1-expressing cells, Ca2+ dye fluorescence, FDSS; host cell line not named in the record; reference of the full effect not given here; activation, % (no concentration beside the values); in the data active = activation above about 50%; inconclusive = about 30% to 50%; inactive = below about 30%; also: 0% is about no effect; the text of the record puts the active cut at 80%
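TRPML1-DL cells, Tet-induced overnight (~16 h, 37 degrees C), loaded 45-90 min at room temperature with Ca8 no-wash calcium dye plus quencher. FDSS fluorescence: 10 s baseline, compound pin-transfer, 110 s agonist read, then EC80 54-4 (4uM final) and 110 s antagonist read.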
* marks the source's active call; other numbers are inactive results; ? = inconclusive; nt = not tested or not shown; [ ] = remark or other dose. The list is partial; rates above refer to the full screens.

molecule	CtBP-E1A blk	Six1-Eya2 inh	PINK1 expr mod	TRPML1 inh	D2 ag	TRPML1 ag
CCC1(CC(C)c2ccccc2)C(=O)NC(=O)NC1=O (stereo not drawn)	-3	-7	-2.2%	-12	5.8	0.5
CN1C(=O)C(=Cc2cn(CC(=O)N3CCCCC3)c3ccccc23)C(=O)N(C)C1=O	4	14	1.7%	13	-1.6	1.7
CCn1cc(C(=O)c2ccccc2)c2ccccc21	5	3	-4.7%[38.3 µM]	10	-3.1	0.6
Cc1nn(Cc2ccccc2)c(Cl)c1C(=O)OCC(=O)NCC1CCCO1 (stereo not drawn)	nt	-21	2.7%	-14	-5.0	0.9
CC(C)CCNC(=O)c1cc(C(=O)c2cc(F)ccc2O)cn(CCC(C)C)c1=O	2	4	9.6%	8	-2.5	3.1
COC(=O)c1ccc(NC(=O)CSc2nc3ccc(N4C(=O)C5C6C=CC(C6)C5C4=O)cc3s2)cc1 (stereo not drawn)	2	-10	-0.2%	5	7.5	0.7
Cc1nc(SCc2c(Cl)cccc2Cl)nc(OC(=O)N(C)C)c1C	nt	11	4.8%	10	1.5	0.3
O=c1[nH]c(=O)n(Cc2ccco2)c(O)c1C=NCc1ccc2c(c1)OCO2	-3	-3	-3.2%[38.3 µM]	4	-1.4	2.2

Single values from the list.
Reading of CN1C(=O)C(=Cc2cn(CC(=O)N3CCCCC3)c3ccccc23)C(=O)N(C)C1=O under CtBP-E1A blk: 4
Reading of Cc1nn(Cc2ccccc2)c(Cl)c1C(=O)OCC(=O)NCC1CCCO1 (stereo not drawn) under TRPML1 ag: 0.9
Reading of CCn1cc(C(=O)c2ccccc2)c2ccccc21 under D2 ag: -3.1
Reading of COC(=O)c1ccc(NC(=O)CSc2nc3ccc(N4C(=O)C5C6C=CC(C6)C5C4=O)cc3s2)cc1 (stereo not drawn) under D2 ag: 7.5

More records.
molecule	CtBP-E1A blk	Six1-Eya2 inh	PINK1 expr mod	TRPML1 inh	D2 ag	TRPML1 ag
O=S(=O)(c1ccccc1)C1CN1c1c(F)c(F)c(F)c(F)c1F (stereo not drawn)	2	1	1.6%	nt	nt	-0.9
CN1C(=O)C(C)(C2=CCCCC2)C(=O)NC1=S (stereo not drawn)	9	7	3.4%	7	3.8	0.2
COC(=O)C1=C(c2ccc(-c3ccccc3)c(F)c2)C[C@@H]2CC[C@H]1N2C(=O)N1CCC(O)CC1	0	2	0.1%	3	-2.9	-0.5
COc1cccc(C(c2nnnn2-c2ccc3c(c2)OCCO3)N2CCC(n3c(=O)[nH]c4ccccc43)CC2)c1OC (stereo not drawn)	-26	-12	0.3%	nt	3.7	0.0
CCCn1ncc(CN2CCCC(C(=O)c3cccc(OC)c3)C2)c1C (stereo not drawn)	0	-7	-0.3%	3	-3.9	-0.6
Fc1ccc(CN2CCN(c3ccc(Cl)cc3)CC2)cc1	nt	0	6.3%	-14	nt	0.8
COC(=O)C1=C(c2ccc(Cl)c(C(F)(F)F)c2)C[C@@H]2CC[C@H]1N2C(=O)NCCOc1ccc(OC)cc1	?	-17	?	24	-0.6	2.5
CCCC(C)C1(CC)C(=O)NC(=O)N=C1N (stereo not drawn)	14	7	3.1%	-16	-4.9	1.8
Cn1c(O)c(C2=NN(C(=O)CCl)C(c3ccccc3)C2)c(=O)n(C)c1=O (stereo not drawn)	nt	-22	0.7%	-4	-5.4	-0.8
CC(C)[C@H]1C(=O)O[C@@H]2CCN3CC=C(COC(=O)[C@](C)(O)[C@]1(C)O)[C@H]23	2	2	-1.2%	nt	-0.4	nt
Nc1ccc(-c2ccccc2)cc1	-2	-9	2.1%	-11	-1.9	1.9
COc1ccccc1CCNC1CCC(C(C)(C)C)CC1 (stereo not drawn)	9	2	3.2%[38.3 µM]	24	-3.9	0.8
O=C(N=Nc1c(O)[nH]c(=O)[nH]c1=O)C1COc2cc3ccccc3cc2O1 (stereo not drawn)	nt	-3	6.4%	6	3.8	0.3
Cc1ccc2c(c1)C1CN(C)CCC1N2C(=O)CCCN1C(=O)c2cccc3cccc(c23)C1=O (stereo not drawn)	-5	-3	8.4%	0	-4.0	-0.7
Nc1ccc(Cc2ccc(N)c(Cl)c2)cc1Cl	-11	-4	6.2%	4	-3.9	-0.3
Cc1ccc(NC(=S)NCCc2cnc[nH]2)cc1C	-1	-1	2.4%	15	-3.1	-0.1
O=C(COC(=O)Cc1ccccc1)Nc1ccc(SC(F)F)cc1	3	3	-1.7%	32	-5.2	-0.7
CCCCSC1=NN1c1nc(N)nc(C)c1CC	-14	-12	nt	7	-1.3	-0.1
Cc1ccc(C(=O)Nc2ccc(-n3ccnc3P(=O)(O)c3ccccc3)cc2)cc1	-3	-5	-0.8%	1	0.2	0.9
N#CCCn1cc(C(=O)Nc2ccc([N+](=O)[O-])cc2)c(-c2ccccc2)n1	nt	-7	1.3%	39	-6.6	0.0
C[N+]1(C)CCN(c2ccccc2)CC1	5	2	0.5%	6	-3.5	-0.7
CCCCCn1c(NC(=O)c2ccco2)c(C(=O)OCC)c2nc3ccccc3nc21	?	?	6.0%	-3	-14	-0.1
Cc1cc(O)c(CN2CCN(c3ccccc3)CC2)cc1C	17	-4	0.4%	-11	nt	-0.1
Cc1ccc(/C=C2\C(=O)NC(=S)N(c3cccc(F)c3)C2=O)o1	nt	-1	-0.9%	nt	0.1	nt

A stretch taken from the entries so far, for reference:
molecule	CtBP-E1A blk	Six1-Eya2 inh	PINK1 expr mod	TRPML1 inh	D2 ag	TRPML1 ag
Cc1cc(O)c(CN2CCN(c3ccccc3)CC2)cc1C	17	-4	0.4%	-11	nt	-0.1
Cc1ccc(/C=C2\C(=O)NC(=S)N(c3cccc(F)c3)C2=O)o1	nt	-1	-0.9%	nt	0.1	nt

Further structures follow:
molecule	CtBP-E1A blk	Six1-Eya2 inh	PINK1 expr mod	TRPML1 inh	D2 ag	TRPML1 ag
O=[N+]([O-])c1cc([As](=O)(O)O)ccc1O	5	-7	0.2%	-10	-3.6	-1.1
CC(=O)N(C1=NCCCS1)c1ccc(F)cc1	2	-1	4.3%[38.3 µM]	-3	-2.8	-0.3
NNc1n[nH]c(=S)n1N	-27	-11	0.5%	17	nt	0.3
C[C@]1(O)CCC2C3CC[C@@H]4CC(=O)CC[C@]4(C)C3CC[C@@]21C (stereo partly drawn)	8	-1	-2.2%	22	-2.1	0.3
CCOC(=O)CNC(=O)N1Cc2cc(N3CCCCC3)ccc2-n2nncc2C1	8	9	-0.5%	nt	-2.7	0.0
CC(=O)c1ccc(OCC(=O)N2CCCC(N3CCN(c4ccccc4C)CC3)C2)cc1 (stereo not drawn)	-2	-3	0.6%	-5	-0.7	-0.3
Cc1ccc2c(c1)[C@@H]1CN(C)CC[C@@H]1N2C(=O)Nc1cccc(C(F)(F)F)c1	-7	-6	3.4%[38.3 µM]	-22	-4.0	1.5
CCCn1cc(C(=O)O)cn1	-6	9	-2.7%	-1	-3.4	0.2
Cc1ccc(-n2c(O)c(C=NC3CCCC3)c(=O)[nH]c2=O)c(C)c1	6	3	0.1%	9	-0.4	1.0
CCOC(=O)[C@]12Cc3cc(C)ccc3[C@H]1N(C)C(=O)c1ccccc12	2	4	0.7%	nt	nt	-0.7
CC1CCC(C(=O)NC(C(=O)N2CCC3(CC2)OCCO3)C(C)C)CC1 (stereo not drawn)	14	0	-2.2%	-19	-2.6	0.9
Cc1[nH]c2ccccc2c1C(=O)C(=O)N1CC2CC(C1)c1cccc(=O)n1C2 (stereo not drawn)	28	13	1.6%	-6	1.3	-0.5
COc1ccc(OC)c(CC(=O)O)c1	3	3	-0.7%[38.3 µM]	-4	-0.6	1.6
Cc1nc(C)c(C(=O)NN=Cc2ccc(N(CCCl)CCCl)cc2)s1	17	-1	4.5%	-7	-4.1	1.2
CS(=O)(=O)c1ccc(C2=C(CNC(=O)c3cccs3)[C@H]3CC[C@@H](C2)N3Cc2ccccc2)cc1	0	-5	0.1%	5	-6.7	-0.4
Cc1oc(-c2ccc(Cl)cc2)nc1CN1C(=O)CN=C(c2ccccc2)c2ccccc21	nt	nt	-0.3%	41	nt	-0.8
COC(=O)C1=C(c2cccc(C#N)c2)C[C@@H]2CC[C@H]1N2C(=O)N1CCc2cc(OC)c(OC)cc2C1	-17	-2	0.9%	15	0.1	4.0
CN(C)c1ccc(CCN2CCOCC2)cc1	-3	-4	0.8%	12	-2.9	-0.2
CCCCn1c(=O)c(C(=O)Nc2ccccc2C)c(O)c2ccccc21	14	5	3.0%	-7	6.7	3.8
C[C@]12CC[C@@H](O)C[C@@H]1CC[C@@H]1[C@@H]2CC[C@]2(C)[C@@H](O)CC[C@@H]12	8	-4	0.8%	0	2.4	0.1
CC(=O)OC1(c2ccccc2)CCN(C)C(C)C1C (stereo not drawn)	-1	7	0.3%	-6	-2.3	-0.4
CC(C)c1oc(=O)cc2c1[C@@H](O)[C@H]1OC(=O)[C@@]3(C)CC[C@@H](O)[C@@]2(C)C13 (stereo partly drawn)	-1	1	-1.9%	-10	-3.0	-0.8
CCOC(=O)[C@]12Cc3cc(OC)ccc3[C@H]1N(C)C(=O)c1cc(OC)ccc12	2	-8	-1.1%	nt	nt	-0.6
O=[N+]([O-])c1c2ccccc2cc2ccccc12	-24	3	1.9%	28	-4.2	-0.3

2 compounds drawn at random from those above, as already listed:
molecule	CtBP-E1A blk	Six1-Eya2 inh	PINK1 expr mod	TRPML1 inh	D2 ag	TRPML1 ag
COC(=O)C1=C(c2cccc(C#N)c2)C[C@@H]2CC[C@H]1N2C(=O)N1CCc2cc(OC)c(OC)cc2C1	-17	-2	0.9%	15	0.1	4.0
C[C@]12CC[C@@H](O)C[C@@H]1CC[C@@H]1[C@@H]2CC[C@]2(C)[C@@H](O)CC[C@@H]12	8	-4	0.8%	0	2.4	0.1

(list continues)
molecule	CtBP-E1A blk	Six1-Eya2 inh	PINK1 expr mod	TRPML1 inh	D2 ag	TRPML1 ag
COc1ccccc1N1CCN(Cc2ccc(Br)s2)CC1	-6	-10	-2.0%	89	1.4	-1.4
CN(C)CCN=Cc1c(O)n(Cc2ccc3c(c2)OCO3)c(=S)[nH]c1=O	-1	-6	1.8%	-14	5.3	1.5
Cc1cc(C=O)c(C)n1C(C)C	-2	-6	3.9%	-3	-2.1	-0.4
O=[N+]([O-])c1ccc(N2CC2)c([N+](=O)[O-])c1	-26	-6	0.8%	-1	-1.8	-0.5
CCCS(=O)(=O)N1CCC(C(=O)N2CCC3(CC2)OCCO3)CC1	-1	0	5.6%	24	-3.0	-0.5
N#CCCn1cc(C(=O)NCc2ccccc2)c(-c2ccc3c(c2)OCCO3)n1	4	-1	-1.5%	7	0.9	-0.4
COc1ccc(-c2cc(=Nc3cccc(C(=O)O)c3)c3cc(C)ccc3o2)cc1	2	-2	-0.4%	21	-6.2	-0.1
O=C(NCCN1CCCCC1)c1ccc(Cl)nc1Cl	nt	-2	-0.5%	2	-2.1	-0.1
O=C(NCc1ccccc1)c1cccn(Cc2ccccc2)c1=O	nt	3	1.1%	16	0.4	0.0
